Screening results as filed in PubChem.
Ecoli growth = blocks Escherichia coli growth. 330,000 tested, 0.21% active. OD600, 23 h; active compounds read low. OD600 absorbance (concentration not given with the values);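 active = OD600 absorbance below the run mean of sample wells minus 3.6 SD, in any replicate, cut at about 0.56 in these data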;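 note: stock transfer was 300 nL into about 60 µL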
ALR H2O2 inh = inhibitors of human sulfhydryl oxidase ALR; inhibition, % (concentration not given with the values); purified ALR, DTT oxidation, H2O2 HRP-luminol luminescence; P55789; 290,000 tested, 3.8% active; AID 485317;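 active = mean and each replicate at 75% or more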;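 note: stock transfer was 7.5 nL into about 7.5 µL; 0% = neutral wells and 100% = wells with inactivated enzyme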
Ecoli rRNA inh = inhibitors of bacterial rRNA selective over humanized ribosomes; E. coli WT GFP vs humanized-ribosome RFP mutants, fluorescence, 24 h; active compounds read low; DMSO median 0, no signal -100; GFP signal change (wild-type ribosome), % (no concentration beside the values); 350,000 tested, 1.6% active;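 active = significant combined selectivity score with lowered wild-type GFP, culture density cut under 30%, mutant RFP and density less affected; inactive = any of these conditions unmet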; note: one replicate is shown; some compounds called inactive have numbers as strong as hits
B2AR ag = agonists of human beta-2 adrenergic receptor inducing internalization | Am2.2-beta2AR cells, FAP receptor internalization, flow cytometry; reference of the scale not given here | AID 504454 | 340,000 tested, 0.43% active | response, % (no concentration beside the values) | P07550;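 active = response above a set limit, near 3 SD of response in nonfluorescent compounds, cut at about 42% in these data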;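 note: stock transfer was 100 nL into about 11 µL; a reference agonist was the positive control; negative values mostly stem from fluorescent compounds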
FGF22 binding = binders of recombinant human FGF22 by thermal shift | 340,000 tested, 1.5% active | calls only at 9.99 µM | AID 651658 | SYPRO orange fluorescence; percent of sucrose octasulfate shift, DMSO zero | Q9HCT0;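 active = melting point raised past a set limit in the mean and every replicate; three in four hits are not shown here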
Target sequence (Q9HCT0 whole entry, looked up): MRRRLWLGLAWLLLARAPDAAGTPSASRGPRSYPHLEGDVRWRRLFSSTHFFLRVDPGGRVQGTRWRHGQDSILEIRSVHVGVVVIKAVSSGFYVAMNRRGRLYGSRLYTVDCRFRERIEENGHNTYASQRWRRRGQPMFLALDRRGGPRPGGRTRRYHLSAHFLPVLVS
UCH37 DUB inh = inhibitors of human deubiquitinating enzyme UCH37. inhibition, % (test concentration not listed). purified proteasome/UCH37, Ub-AMC cleavage fluorescence. 330,000 tested, 0.33% active;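 active = mean of two replicates above 20%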;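 note: 0% = compound-free wells with enzyme and 100% = wells lacking proteasome; stock transfer was 100 nL into about 20 µL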
Target sequence (Q9Y5K5 whole entry, looked up): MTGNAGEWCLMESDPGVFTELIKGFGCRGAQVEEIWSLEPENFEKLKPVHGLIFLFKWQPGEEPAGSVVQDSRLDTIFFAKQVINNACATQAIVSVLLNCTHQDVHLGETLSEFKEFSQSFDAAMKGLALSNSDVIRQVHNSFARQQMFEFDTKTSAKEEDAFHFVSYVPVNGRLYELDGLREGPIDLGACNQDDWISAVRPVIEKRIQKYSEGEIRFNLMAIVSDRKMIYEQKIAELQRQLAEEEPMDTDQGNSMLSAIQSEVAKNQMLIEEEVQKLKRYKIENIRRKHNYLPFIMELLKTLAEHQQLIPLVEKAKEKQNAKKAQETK
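Reagent: Ub-AMC substrate; assay system: Proteasome-associated human UCH37 deubiquitinase; controls: no-proteasome and no-compound wells; read-out: % inhibition of Ub-AMC cleavage fluorescence; timing: 30 min preincubation with enzyme, 25 min cleavage at room temperature; signal: AMC fluorescence from Ub-AMC cleavage, excitation 355 nm, emission 460 nm; buffer or medium: Tris-HCl pH 7.4 plus ovalbumin, ATP-MgCl2, DTT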
HNF4A DNA FP = change in binding of human HNF4 alpha to DNA. AID 1224865. activity change, % at 10 µM. HNF4a-FITC DNA binding, fluorescence polarization, 1 h. P41235. 360,000 tested, 0.3% active; in the data active = activity change above about 30%, passing the limit was not always enough;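 note: controls were the assay level and a saturating level of protein; the project sought stronger binding though the title names inhibitors; some compounds called inactive have numbers as strong as hits; positive values seem to mean higher polarization but the record does not say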
Target sequence (P41235 whole entry, looked up): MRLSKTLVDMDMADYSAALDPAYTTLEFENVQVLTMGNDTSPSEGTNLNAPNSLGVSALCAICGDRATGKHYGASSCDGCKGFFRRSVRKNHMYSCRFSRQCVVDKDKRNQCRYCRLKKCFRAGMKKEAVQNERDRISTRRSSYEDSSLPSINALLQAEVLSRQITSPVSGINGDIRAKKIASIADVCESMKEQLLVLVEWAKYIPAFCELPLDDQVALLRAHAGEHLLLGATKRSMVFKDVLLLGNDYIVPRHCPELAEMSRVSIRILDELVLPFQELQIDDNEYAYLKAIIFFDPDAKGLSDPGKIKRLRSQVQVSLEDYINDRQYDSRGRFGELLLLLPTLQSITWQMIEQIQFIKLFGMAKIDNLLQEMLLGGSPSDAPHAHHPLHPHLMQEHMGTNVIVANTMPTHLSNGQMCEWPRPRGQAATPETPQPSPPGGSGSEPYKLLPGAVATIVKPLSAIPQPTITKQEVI
Ecoli rRNA inh OD600 = further read-out of Ecoli rRNA inh, marked with its call; OD600 change, %; measured here: OD600 growth;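 optical density of the mix in the first replicate; 0 = DMSO median and -100 = no signal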
Ecoli rRNA inh RFP = recorded beside Ecoli rRNA inh, whose call it bears; RFP signal change, %; measured here: RFP humanized mutant strains;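 first replicate; 0 = DMSO median and -100 = no signal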
An asterisk follows results filed as active; i = inactive; nt = no result given.

SMILES	Ecoli growth	ALR H2O2 inh	Ecoli rRNA inh	Ecoli rRNA inh OD600	Ecoli rRNA inh RFP	B2AR ag	FGF22 binding	UCH37 DUB inh	HNF4A DNA FP
O=C(NC1(C(F)(F)F)NC(=O)N(c2ccc(F)cc2)C1=O)c1cccs1 (stereo unspecified)	0.67	-2	nt	nt	nt	1	nt	4.4	-2.0
NC(=O)c1c(C(F)(F)F)cc(-c2ccccc2)nc1NCCO	0.69	nt	nt	nt	nt	-2	nt	-95	-4.5
COc1ccc(CCNC(=O)c2cc(C3CC3)nc3c2cnn3C(C)C)cc1	0.72	-3	-13	-48	15	9	i	-2.7	0.5
S=c1[nH]nc(Cn2c(-c3ccccn3)nc3ccccc32)n1-c1ccc2c(c1)OCCO2	0.64	61	-11	-10	5.6	-8	i	2.6	2.6
Cc1ccc(NC(=S)NC(=O)c2cncc(Br)c2)c(C)c1	0.69	nt	2	5	-1.0	-25	i	7.0	1.1
O=C(Oc1ccc(/C=N/NC(=O)c2ccccn2)cc1)c1ccc(Br)cc1	nt	nt	nt	nt	nt	6	i	nt	2.6
CCOC(=O)c1ccc(NC(=O)C(CC)(CC)C(=O)OCC)cc1	0.62	-2	nt	nt	nt	15	nt	0.5	-1.9
NC(=O)C[C@H]1NC(=O)[C@H](CCC(=O)O)NC(=O)c2cc([N+](=O)[O-])cc(I)c2NCCC[C@@H](C(N)=O)NC1=O	nt	-4	nt	nt	nt	-4	nt	5.9	0.3
CCn1c(C)cc(/C=C2/SC(=O)N(CC(=O)N3CCCC3)C2=O)c1C	0.68	nt	-4	-16	-0.9	0	i	4.4	23
CC1(c2ccc3c(c2)OCO3)NC(=O)N(CC(=O)Nc2ccccc2[N+](=O)[O-])C1=O (stereo unspecified)	nt	nt	8	-6	-0.1	8	i	nt	-0.1
O=C(CN1CCN(S(=O)(=O)c2ccc(F)cc2)CC1)Nc1ccccc1C(=O)NC1CC1	0.7	nt	-6	-7	2.4	5	i	1.6	3.5
CNC(=O)c1ccc(OCc2ccccc2)c(OC)c1	0.69	-4	nt	nt	nt	-2	nt	-0.2	-0.3
COc1ccc2nc(SCC(=O)Nc3ccc4c(c3)OCCO4)[nH]c2c1	0.66	27	nt	nt	nt	0	nt	-1.4	-0.7
CC(C)[C@H](NC(=O)N1c2ccccc2NC(=O)[C@@H]1C(C)C)C(=O)N1CCC[C@H]1C(=O)O	0.81	0	nt	nt	nt	-5	i	1.7	-3.5
CCOC(=O)c1c(NCCN(C)C)c2ccccc2[nH]c1=O	0.71	-3	6	2	-3.7	5	i	0.5	2.1
O=C(Nc1nnc(S(=O)(=O)N2CCCCCC2)s1)c1ccc(Cl)cc1	0.68	-8	1	1	-4.6	18	i	-1.5	1.7
Cc1cc2nc(CS)[nH]c2cc1C	0.67	99*	8	14	1.7	3	i	-13	35
CCCCOC(=O)Nc1nnc(Cc2ccc(Cl)cc2)s1	0.69	nt	10	6	3.0	-6	i	1.1	3.0
CNC(=O)NC(=O)CSc1ccc(NC(C)=O)cc1	0.73	25	nt	nt	nt	2	nt	4.9	0.7
CC(=O)c1sc(NCc2ccccc2)nc1C	0.67	-4	5	3	-0.9	-9	i	7.4	2.0
CC(C)C(NC(=O)c1ccc2c(c1)OCCO2)c1nc2ccccc2[nH]1 (stereo unspecified)	0.66	-1	3	4	-1.3	-1	i	2.3	-1.5
O=C(NCCNC(=O)c1ccc(Cl)cc1Cl)c1cnccn1	0.7	-11	3	5	0.2	-3	i	3.3	1.3
CC(=O)c1ccc(N2CCN(CC3CCCCC3)CC2)cc1	0.6	-2	6	6	0.9	15	i	2.6	1.9
CN1OC[C@@H]2CN(C(=O)CCc3ccccc3)[C@H](c3cccc(N4CCOCC4)c3)C[C@@H]21	nt	nt	2	11	-1.2	-16	i	nt	3.4
Cc1cnc(C(=O)OCC(=O)N2c3ccccc3NC(=O)C2(C)C)cn1	0.69	-2	nt	nt	nt	0	nt	4.2	1.1
CCC(C)C(=O)Nc1cccc(SC)c1 (stereo unspecified)	0.7	-8	nt	nt	nt	nt	nt	4.0	nt
O=C(Nc1ccc(S(=O)(=O)Nc2nccs2)cc1)c1nn(-c2ccc(F)cc2)ccc1=O	0.67	0	6	8	-1.1	-3	i	9.8	-22
O=C(C1=C[C@@H](c2ccccc2)C[C@@H](OCCCCO)O1)N1CCOCC1	nt	-7	14	5	0.4	-1	i	0.9	2.2
CCOC(=O)N1CCC(N2Cc3cccc(C(=O)NCc4ccccc4OC)c3C2=O)CC1	0.73	-3	nt	nt	nt	8	nt	4.5	0.1
CCC(C)[C@H](NC(=O)N1CC(=O)Nc2ccccc21)C(=O)N[C@H](Cc1ccccc1)C(=O)O (stereo partly specified)	0.73	-4	nt	nt	nt	-2	i	3.8	-0.4

Sorted by formula weight (descending): some entries from above.
SMILES	Ecoli growth	ALR H2O2 inh	Ecoli rRNA inh	Ecoli rRNA inh OD600	Ecoli rRNA inh RFP	B2AR ag	FGF22 binding	UCH37 DUB inh	HNF4A DNA FP
CCOC(=O)N1CCC(N2Cc3cccc(C(=O)NCc4ccccc4OC)c3C2=O)CC1	0.73	-3	nt	nt	nt	8	nt	4.5	0.1
NC(=O)c1c(C(F)(F)F)cc(-c2ccccc2)nc1NCCO	0.69	nt	nt	nt	nt	-2	nt	-95	-4.5
Cc1cc2nc(CS)[nH]c2cc1C	0.67	99*	8	14	1.7	3	i	-13	35

Next structures follow.
SMILES	Ecoli growth	ALR H2O2 inh	Ecoli rRNA inh	Ecoli rRNA inh OD600	Ecoli rRNA inh RFP	B2AR ag	FGF22 binding	UCH37 DUB inh	HNF4A DNA FP
CCOC(=O)c1[nH]c2ccccc2c1NC(=O)CCN1CC(C)OC(C)C1 (stereo unspecified)	0.68	21	nt	nt	nt	-2	nt	-3.9	-2.3
O=C(COc1ccccc1)Nc1nc(-c2ccncc2)cs1	0.67	-13	0	1	-1.1	8	i	2.7	0.4
Cc1ccc(S(=O)(=O)NN2C(=O)/C(=C/c3cccs3)SC2=S)cc1	0.7	nt	-34*	-22*	-2.6*	8	i	12	-5.1
CC(C(=O)Nc1ccc(OCc2ccccc2)cc1)N1CCCC1 (stereo unspecified)	0.69	nt	8	4	-1.6	-2	i	1.1	-3.7
COc1ccc(C(=O)Nc2cc3c(cc2OC)CCCC3)cc1Br	0.75	-2	nt	nt	nt	-10	nt	-5.8	4.3
Cc1cccc(NC2=NC3(CCCCC3)N=C(N)N2)c1	0.64	-5	nt	nt	nt	-5	nt	0.1	1.0
O=S1(=O)CCOC[C@H](c2ccccc2)N1Cc1cccc(F)c1	0.8	3	-4	-10	-18	-6	i	2.4	2.4
Cc1ccc(SCCC(=O)N2CCCC2)cc1	0.72	45	nt	nt	nt	-3	nt	1.8	1.6
COc1ccc(OC)c(-c2nnc(SCC(=O)N3CCOCC3)o2)c1	0.71	-30	nt	nt	nt	-1	nt	0.3	2.5
Cc1ccc(NCc2nnc(SCC(=O)Nc3cccc(O)c3)n2CC2CCCO2)c(C)c1 (stereo unspecified)	0.71	4	nt	nt	nt	-1	nt	6.7	3.4
COC1=CC(=O)OC(c2ccco2)C1 (stereo unspecified)	0.68	nt	4	12	-2.0	-10	i	0.5	0.1
C#CCNC(=O)C1=C[C@@H](c2ccc(C#C)cc2)C[C@@H](OCCCCO)O1	nt	-5	nt	nt	nt	-5	nt	5.3	-2.0
COc1ccc(N2CCN(c3cc(=O)n(Cc4ccc(F)cc4)c(=O)[nH]3)CC2)cc1	0.71	-39	-6	-3	1.7	14	i	5.8	1.1
COC(=O)c1[nH]c2ccccc2c1NC(=O)C(C)N1CCOCC1 (stereo unspecified)	0.67	-2	15	1	2.2	0	i	-2.7	6.5
CCCn1c(SCC(=O)NC2CCCCC2)nnc1-c1ccncc1	0.69	-1	nt	nt	nt	-3	nt	-1.0	2.0
CN(C)c1ccc(/C=N/NC(N)=S)cc1[N+](=O)[O-]	nt	-8	4	6	9.1	2	i	nt	-4.8
COC(=O)c1ccn(C(=O)c2ccc(Cl)cc2)n1	0.67	-18	nt	nt	nt	3	nt	-228	2.0
CCN(CC)CCn1c(NC(=O)c2ccc(C)cc2)nc2ccccc21	0.62	nt	-9	-3	-0.7	-8	i	2.8	0.5
COc1ccc(S(=O)(=O)N2CCC(C(=O)N3CCc4ccccc4C3)CC2)cc1	0.7	-3	nt	nt	nt	-9	nt	1.6	0.5
Cc1cc(C(=O)O)ccc1N=Cc1c(O)ccc2ccccc12	0.67	-18	4	4	-0.6	13	i	15	46*
COc1cc(OC)c(NC(=O)C2CCCN2C(=O)OCc2ccccc2)cc1Cl (stereo unspecified)	0.71	-17	-15	-12	-3.7	-7	i	2.1	1.2
COc1cccc(NC(=O)c2cc(CN3C(=O)c4ccccc4C3=O)ccc2OC)c1	0.72	-2	1	7	-1.0	-3	i	1.2	0.2
CCOc1ccc(NC(=O)NCc2ccc3c(c2)OCO3)cc1	0.73	-4	12	13	0.7	7	i	-3.3	2.3
O=C(Oc1ccc(-c2nc(-c3ccccn3)no2)cc1)c1ccccc1	0.67	-1	nt	nt	nt	-6	nt	6.5	1.0
NC(=S)Nc1cccc2cn[nH]c12	0.69	22	-2	-2	-2.1	0	i	3.8	1.8
Cc1c(NC(=O)CSc2ncnc3c2cnn3-c2ccccc2)c(=O)n(-c2ccccc2)n1C	0.68	3	-2	-4	1.1	11	i	1.6	-1.3
COc1ccc(CC(=O)OCC(=O)NC2CCCCC2)cc1	0.67	nt	nt	nt	nt	-2	i	-1.6	1.0
C/C(=N\Nc1cc(C)nc(NCc2ccccc2)n1)c1ccc([N+](=O)[O-])cc1	nt	-8	-6	2	0.7	-4	i	nt	-0.5
CCc1nc(SCC(=O)Nc2c(C)n(C)n(-c3ccccc3)c2=O)n[nH]1	0.81	nt	nt	nt	nt	-7	nt	2.7	0.2
O=C(c1cccc(F)c1)N1CCN(C(=O)C2CC2)CC1	0.72	-6	nt	nt	nt	5	nt	3.7	5.3
CCN(CC)C(=O)c1sc2[nH]c(=S)n(-c3ccccc3)c(=O)c2c1C	0.66	0	0	2	-5.5	2	i	11	0.9
COc1ccc(CCNC(=O)C2CCN(S(=O)(=O)c3ccc(NC(C)=O)cc3)CC2)cc1OC	0.69	-8	0	0	-1.5	5	i	-0.2	3.6
CCCCOc1ccc(C(=O)NCCc2ccccc2)cc1	0.72	-2	-7	-3	-2.9	0	i	1.7	-4.0
CC(C)(C)c1ccc(CCC2OCC(CN3CCOCC3)O2)cc1 (stereo unspecified)	0.67	nt	-33*	-11*	-5.3*	1	i	2.3	-1.4
O=C(CCNS(=O)(=O)c1ccc2c(c1)CCC(=O)N2)NCc1ccc2c(c1)OCO2	0.7	nt	nt	nt	nt	8	nt	4.1	1.7
Cc1ccc(S(=O)(=O)N2CCN=C2SC(C)c2ccccc2)cc1 (stereo unspecified)	0.72	2	-13	-60	-5.1	-3	i	4.3	-2.3
O=C(NN=Cc1ccc(F)cc1)c1cccc(S(=O)(=O)N2CCCC2)c1	0.67	-15	15	11	-0.7	4	i	2.3	-1.3
COc1cnc(N(C)C)nc1Sc1ccc(Cl)cc1	0.74	-3	nt	nt	nt	0	nt	-76	-0.2
O=S(=O)(NCCc1nc2ccccc2[nH]1)c1ccccc1	nt	nt	7	14	-2.3	-2	i	nt	-0.6
c1ccc(Oc2ccc3ccccc3n2)cc1	0.68	-11	10	5	-3.2	2	i	-0.1	-2.4
Cc1cc(NC(=O)Nc2cccc(Cl)c2)n(-c2ccccc2)n1	0.65	-8	-19	-11	-6.1	0	i	1.8	-4.8
COc1ccc(Sc2ccccc2CN(C)C)cc1OC	0.75	8	nt	nt	nt	4	nt	0.7	3.5
COC(=O)c1cc(-c2cccs2)nn1-c1ccccc1	0.71	2	-29*	-17*	-9.0*	0	i	5.2	5.2

The list is partial. The share of hits here may be higher or lower than overall.
